# High-throughput results as filed in PubChem.
# PABP FP inh: PABP poly(A) RNA binding inhibitors, primary screen, biochemical, fluorescence polarization, uHTS; hit rate 1% among 290,000; Polyadenylate-binding protein 1 (Homo sapiens), P11940; AID 2014, 2009; inhibition, % at 35 µM;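 active = 50% or more with normal probe brightness, or confirmed in later tests; inconclusive = above 50% with abnormal brightness, or retests that disagree; inactive = below 50% or failed in later tests; about a fifth of its hits are not listed in these tables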;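 also: calls also rest on retests at 20 µM and on dose response follow-up; controls were probe without protein and protein plus probe with vehicle; some compounds called inactive have numbers as strong as hits; many hits fall short of the cut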
# UUG fidelity: modulators of yeast start codon fidelity, primary screen, whole organism, S. cerevisiae, single point, plate reader | hit rate 0.13% among 350,000 | activity score, % at 18.7 µM | S. cerevisiae UUG-firefly luciferase reporter, luminescence/redox ratio;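 active = replicate mean at a twofold rise or more, about +100% in these data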;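 also: firefly luciferase made from a UUG start codon reports start codon fidelity; reporter light over untreated wells divided by growth signal over untreated wells; some hits fall short of that in this replicate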
# Env fusion inh: inhibitors of HIV-1 Env-driven cell-cell fusion, primary screen, HeLa-JRFL effector, CEM21 target cells, luciferase; inhibition, % at 12.3 µM; hit rate 1.1% among 360,000; AID 651610, 2012;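 active = mean replicate inhibition score of at least 50 and every replicate individually at or above 50; inconclusive = only one of the two criteria met; inactive = mean below 50 and not all replicates reaching 50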;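 also: 0% = plate neutral controls and 100% = maraviroc near 300 nM; one replicate is shown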
# eIF4H inh: human eIF4H binding inhibitors, primary screen, translation initiation inhibitor project, biochemical, uHTS, fluorescence polarization | Eukaryotic translation initiation factor 4H (Homo sapiens), Q15056 | eIF4H fluorescence polarization binding assay | inhibition, % at 35 µM | hit rate 0.94% among 290,000 | AID 2012, 2009;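 active = 50% or more with normal probe brightness, or confirmed in later tests; inconclusive = above 50% with abnormal brightness, or retests that disagree; inactive = below 50% or failed in later tests; about a fifth of its hits are not listed in these tables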;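 also: calls also rest on retests at 20 µM and on dose response follow-up; 0% = protein and probe with vehicle and 100% = probe without protein; strong numbers were not always called active; many hits fall short of the cut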
# CSC inhib: cancer stem cell viability inhibitors, primary screen, luminescence. hit rate 1.1% among 300,000. inhibition, % at 7.5 µM. cancer stem cell-like cells viability. AID 2717, 2010;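 active = mean at 75% or more and at least half the replicates too; inconclusive = mean and replicates disagree; tested in HMLE shEcad cells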;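 also: 0% = median of negative and 100% = median of positive control wells; the first replicate is given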
# MT1-MMP act inh: blockers of MT1-MMP proenzyme processing, primary screen, HT1080 RFP-PRO-GFP cells, GFP/RFP fluorescence; GFP/RFP ratio fluorescence, overnight; percent of plate control window, DMSO zero; hit rate 0.061% among 360,000; GFP/RFP ratio change, % at 20 µM; AID 651647, 2012; Matrix metalloproteinase-14 (Homo sapiens), P50281;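 active = GFP/RFP ratio change of at least 30% with cell ATP level not reduced by more than half and red fluorescence within 50% of control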; also: strong numbers were not always called active
#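 Material – HT1080 RFP-PRO-GFP cells · Control set – DMSO wells and RFP-L50D-GFP cells · Incubation – overnight cell settling, then overnight compound exposure, 37 °C, 5% CO2 · Compound dosing – single-point 20 µM compound, 1% DMSO · Read-out – GFP/RFP fluorescence ratio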
# Rce1 inhib: yeast Rce1p protease inhibitors, primary screen, biochemical, fluorescence, cell-free homogeneous; AID 2563, 2010; CAAX prenyl protease 2 (Saccharomyces cerevisiae (strain ATCC 204508 / S288c)), Q03530; hit rate 0.27% among 290,000; calls only; yeast membranes, quenched prenylated peptide cleavage fluorescence;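 active = fall in fluorescence gain of 50% or more versus controls, with final raw signal at or below 3038400; inconclusive = same 50% fall but final raw signal above 3038400; inactive = fall in fluorescence gain under 50%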;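 also: plate controls were neutral control wells for no effect and wells lacking membranes for full effect; tested at 10 µM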
# Target sequence (Q03530 whole entry, looked up): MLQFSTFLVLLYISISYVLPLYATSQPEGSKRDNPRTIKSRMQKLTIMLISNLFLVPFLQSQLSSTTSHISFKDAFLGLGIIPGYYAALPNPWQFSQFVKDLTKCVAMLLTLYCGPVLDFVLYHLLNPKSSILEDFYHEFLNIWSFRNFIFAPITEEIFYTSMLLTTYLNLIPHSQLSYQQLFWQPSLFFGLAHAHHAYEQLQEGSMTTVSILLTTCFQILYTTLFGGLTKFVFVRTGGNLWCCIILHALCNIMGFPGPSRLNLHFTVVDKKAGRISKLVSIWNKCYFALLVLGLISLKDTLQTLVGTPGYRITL
# eIF4H inh retest: recorded beside eIF4H inh, whose call it bears; inhibition, %; compound at 20 µM; confirmation average;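 mean of two retest wells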
# PABP FP inh retest: further read-out of PABP FP inh, marked with its call; inhibition, %; compound at 20 µM; confirmation repeats;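 mean of two retest wells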
# MT1-MMP act inh RFP: also measured in MT1-MMP act inh; calls as there; RFP signal change, %; measured here: RFP expression control read;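 0 = vehicle wells; hits needed this value within 50% of zero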
# * hit, by the source's call; i = inactive; ? = inconclusive; nt = not tested or not shown.
SMILES,PABP FP inh,UUG fidelity,Env fusion inh,eIF4H inh,CSC inhib,MT1-MMP act inh,MT1-MMP act inh RFP,Rce1 inhib,others
O=C(CCl)Nc1nc(-c2ccco2)c(-c2ccco2)s1,-9,nt,1,98,-14,2,9,i,eIF4H inh retest=16;PABP FP inh retest=40
CCCc1cc(=O)[nH]c(SCc2ccccc2Cl)n1,3,-5,-13,-6,11,3,6,nt,
O=c1[nH]c(NCc2ccccc2)nc2c1CCCC2,-5,-20,-27,-11,2,0,-2,i,
COc1ccc(CN(C)C(=O)/C=C/c2ccc(S(=O)(=O)N3CCCCCC3)cc2)cc1,nt,-1,45,nt,nt,-2,-28,nt,
CS(=O)(=O)N1CCN(c2ccc(NC(=S)NC(=O)c3cccs3)cc2)CC1,9,nt,13,2,-9,1,4,i,
CCc1cccc(NC(=S)Nc2ccc(CN3CCOCC3)cc2)c1,23,nt,-24,-1,-13,3,5,i,
Cc1n[nH]c(C)c1CCCCOc1ccccc1F,2,-19,3,4,3,9,-10,i,
CCOC(=O)c1ccoc1CSCc1ccc(C(=O)OC)o1,18,-7,11,6,2,-9,7,i,
COc1ccc(C(O)P(=O)(OCC(C)C)OCC(C)C)c(OC)c1 (stereo not drawn),5,7,13,-4,-12,-7,-2,i,
C=CCNc1ncnc2c1ncn2[C@H]1CN(Cc2ccc3c(c2)OCO3)C[C@@H](CO)O1,nt,-15,3,nt,nt,1,3,nt,
COc1cc(Cl)c(S(=O)(=O)N2CCCC2)cc1Cl,-4,nt,-16,3,54,3,2,i,
O=C(CN(c1ccc2c(c1)OCCO2)S(=O)(=O)c1ccccc1)N1CCN(Cc2ccccc2)CC1,-2,3,-4,5,-16,-5,-2,i,
O=C(Nc1ccc2c(c1)OCO2)c1c(F)c(F)c(F)c(F)c1F,0,-3,-30,-2,0,-4,0,i,
CCOc1ccc(NC(=O)CN2CCCC2c2cccs2)cc1S(=O)(=O)N1CCCCC1 (stereo not drawn),nt,-4,nt,nt,-16,1,-9,nt,
NS(=O)(=O)c1cc2c(cc1Cl)NC=NS2(=O)=O,3,-20,nt,-1,-4,2,4,i,
O=[N+]([O-])c1ccccc1CN1CCN(S(=O)(=O)Cc2ccccc2)CC1,12,-4,-3,17,13,-2,-7,i,
CCN(c1cccc(C)c1)S(=O)(=O)c1ccc2c3c(cccc13)C(=O)N2,19,-7,24,-10,-4,3,-5,i,
O=C(Nc1ccc([N+](=O)[O-])cc1)Nc1ccc2c(c1)OCCO2,2,nt,-118,-3,1,-2,-15,i,
COc1ccc(OC)c(-c2c3cc(O)c(=O)cc-3oc3cc(O)c(O)cc23)c1,4,nt,nt,?,95*,-31,84,nt,
Cc1ccccc1N1C(=O)CC(Sc2nnc(-c3ccccc3)o2)C1=O (stereo not drawn),-7,12,nt,2,54,3,7,i,
CC[C@]1(C(=O)OC)[C@H]2C(=O)N(Cc3ccccc3)C(=O)[C@H]2[C@H]2CN=C(SC)N21,nt,-14,43,nt,nt,-2,3,nt,
COc1ccc2oc(C)c(C(=O)c3ccccc3)c2c1,nt,nt,9,nt,0,-2,-3,i,
COC(=O)c1ccccc1NC(=O)CN1CCOCC1,0,-1,-92,-1,12,1,3,i,
COC(=O)C1CCN(C(=O)c2c(-c3ccccc3Cl)noc2C)CC1,-4,-5,-43,-2,-12,-1,-3,i,
CCC(=O)N1CCC(C)(C(=O)Nc2ccc3c(c2)OCO3)C1 (stereo not drawn),nt,-10,12,nt,nt,1,3,nt,

# By substructure, those above containing a halogen.
SMILES,PABP FP inh,UUG fidelity,Env fusion inh,eIF4H inh,CSC inhib,MT1-MMP act inh,MT1-MMP act inh RFP,Rce1 inhib,others
O=C(CCl)Nc1nc(-c2ccco2)c(-c2ccco2)s1,-9,nt,1,98,-14,2,9,i,eIF4H inh retest=16;PABP FP inh retest=40
CCCc1cc(=O)[nH]c(SCc2ccccc2Cl)n1,3,-5,-13,-6,11,3,6,nt,
Cc1n[nH]c(C)c1CCCCOc1ccccc1F,2,-19,3,4,3,9,-10,i,
COc1cc(Cl)c(S(=O)(=O)N2CCCC2)cc1Cl,-4,nt,-16,3,54,3,2,i,
O=C(Nc1ccc2c(c1)OCO2)c1c(F)c(F)c(F)c(F)c1F,0,-3,-30,-2,0,-4,0,i,
NS(=O)(=O)c1cc2c(cc1Cl)NC=NS2(=O)=O,3,-20,nt,-1,-4,2,4,i,
COC(=O)C1CCN(C(=O)c2c(-c3ccccc3Cl)noc2C)CC1,-4,-5,-43,-2,-12,-1,-3,i,

# (more compounds)
SMILES,PABP FP inh,UUG fidelity,Env fusion inh,eIF4H inh,CSC inhib,MT1-MMP act inh,MT1-MMP act inh RFP,Rce1 inhib,others
COc1cc(/C=N/N=C2/NC(=O)C(CC(=O)O)S2)ccc1OCc1ccc(Cl)cc1 (stereo not drawn),0,nt,-42,26,-1,-1,0,i,
COc1cc(C2NCCc3c2[nH]c2ccccc32)ccc1OC(C)C (stereo not drawn),-6,1,6,-14,-5,nt,nt,i,
O=C(O)CSCC(=O)c1ccccc1,10,-20,nt,-10,-5,1,3,i,
COc1cc([N+](=O)[O-])cc(/C=N/NC(=O)CC#N)c1O,11,nt,nt,90,nt,nt,nt,i,eIF4H inh retest=-8;PABP FP inh retest=0
Cc1ccccc1C(=O)NNC(=O)CSc1nc(-c2ccccc2)cc(=O)[nH]1,-13,nt,-6,-4,-6,7,1,i,
OC(COc1ccc2ccccc2c1)CN1CCN(c2ccc(F)cc2)CC1 (stereo not drawn),-19,-9,-23,-6,0,2,-3,i,
CCSc1nnc(NC(=O)CSc2nc3c(c(=O)n2-c2ccccc2OC)SCC3)s1,-5,8,-14,-8,6,-4,2,i,
Cc1cc(/C=C(\C#N)C(=O)O)c(C)n1C1CC1,8,nt,-18,18,-8,5,4,i,
COc1ccc(C(C(=O)NC2CCCC2)N(CC2CCCO2)C(=O)Cn2nnc(-c3ccc(C)o3)n2)cc1 (stereo not drawn),-3,-10,1,-8,-13,1,1,i,
O=C1CN(C(=O)COC(=O)/C=C/c2ccco2)c2ccccc2N1,-6,nt,12,32,-9,-1,0,i,
COc1ccc(N(C(=O)c2ccco2)C(C(=O)NC2CCCC2)c2cccnc2)c(OC)c1 (stereo not drawn),2,-20,-4,-1,9,-3,3,i,
CCOC(=O)C1CCN(C/C=C/c2ccccc2[N+](=O)[O-])CC1,8,12,12,3,-15,5,1,i,
Cc1cc(-n2c(C)cc(C(=O)CSc3nnnn3-c3ccc(Cl)cc3)c2C)no1,-2,nt,nt,13,nt,7,-1,i,
Cc1nn(-c2ccccc2)c(Cl)c1/C=C1\SC(=S)N(CCCCCC(=O)O)C1=O,11,nt,-8,8,17,-5,3,i,
O=C(COC(=O)c1ccccn1)Nc1cccc(Cl)c1,1,nt,nt,-2,-7,1,3,i,
CCS(=O)(=O)c1ccc2c(c1)NC(=O)C(CCO)O2 (stereo not drawn),-2,nt,-1,-5,1,3,7,i,
CCCS(=O)(=O)c1nc(S(=O)(=O)c2ccc(C)cc2)c(NCCCN(C)C)s1,-7,nt,4,-7,-5,-3,3,i,
Cc1ccc(NC(=O)C2CC(=O)n3ncnc3N2)cc1 (stereo not drawn),-3,-14,nt,9,-7,6,2,i,
CCCN1CCN(C(=O)c2ccc3[nH]c(C)c(C)c3c2)CC1,nt,8,-10,nt,nt,3,2,nt,
COc1ccc(NC(=O)COC(=O)c2cc(SC)ccc2Cl)c(OC)c1,-3,-23,7,1,-11,2,0,i,
COc1ccccc1OC(C)C(=O)NNC(=S)NC1CCCC1 (stereo not drawn),-2,nt,3,-6,-8,0,-3,i,
COc1ccc(NC(=O)C[C@H]2C(=O)N(Cc3cccnc3)C[C@@H]2Cc2ccccc2)cc1,nt,-14,-5,nt,nt,4,5,nt,
O=C(CSc1ccccn1)N/N=C/c1cccc([N+](=O)[O-])c1,0,-15,nt,-13,2,4,4,i,
CN(c1ccc(C(=O)N2CCN(Cc3ccccc3)CC2)cc1)S(=O)(=O)c1ccccc1,-5,-13,27,-14,-11,2,-8,i,
CCNC(=O)C1(C)CCN1CCC(=O)c1ccc(C)cc1 (stereo not drawn),nt,-20,-150,nt,nt,-2,5,nt,

# (continued)
SMILES,PABP FP inh,UUG fidelity,Env fusion inh,eIF4H inh,CSC inhib,MT1-MMP act inh,MT1-MMP act inh RFP,Rce1 inhib,others
Cc1ccc2[nH]c3c(c2c1)CN(C(=O)CN1c2ccc(F)cc2CCC1C)CC3 (stereo not drawn),50,-2,60*,20,-9,-15,1,i,
COc1cccc(OC(=O)c2ccccc2)c1OC(=O)c1ccccc1,nt,-10,-128,nt,nt,1,4,nt,
CCCCSCCCNC(=O)Nc1ccc(CC)cc1,10,nt,-6,-12,-10,3,2,i,
Cc1cc(C)n2nc(/C(C#N)=C/c3ccccn3)c(C#N)c2n1,-12,-14,10,78,11,-17,-17,nt,eIF4H inh retest=-4;PABP FP inh retest=8
COC(=O)[C@]1(C)N[C@H](c2ccc(-c3ccc(OC)cc3)cc2)[C@@H]2C(=O)N(C)C(=O)[C@@H]21,nt,0,-12,nt,nt,4,2,nt,
O=C(c1cc(Br)c[nH]1)N1CCCCC1,1,-16,2,-1,nt,3,4,i,
S=C(Nc1ccc(Cl)cc1)c1nc2ccccc2[nH]1,-1,-28,59*,11,46,5,-11,i,
O=C1CC(c2ccc(Cl)cc2)n2nc(N3C(=O)c4ccccc4C3=O)nc2N1 (stereo not drawn),-5,0,nt,-5,4,2,0,i,
O=C(NCc1ccccc1)/C(=C/c1ccco1)NC(=O)c1ccco1,19,9,5,36,-29,-4,2,i,
CCOC(=O)C1CN(S(=O)(=O)c2ccc(OC)cc2)c2cc(CC(=O)OC)ccc2O1 (stereo not drawn),0,-4,-27,-2,5,0,4,nt,
O=C(CN1C(=O)C(=O)N(Cc2ccccc2)C1=O)Nc1ccc(F)c(Cl)c1,-4,nt,5,-4,-6,4,5,i,
COc1cccc(C(=O)NCc2n[nH]c(=S)n2-c2cccc(C)c2)c1,1,-11,nt,-2,5,-4,5,i,
Cc1[nH]c(C)c(S(=O)(=O)N2CCc3ccccc32)c1C(=O)N1CCCCC1,-2,4,-3,-9,-3,-1,5,i,
CCN(CC(=O)Nc1ccc(NC(C)=O)cc1)CC(=O)Nc1ccc(F)c(Cl)c1,-2,-9,-11,-1,nt,0,-2,i,
COc1ccc(/C=C2\SC(=Nc3ccccc3)NC2=O)cc1,-15,nt,nt,-2,-4,nt,nt,i,

# A portion of the library (hit frequency here may not be typical).
